Rango release inh – prevents RanGTP from dissociating the Rango-importin beta complex; Potency, µM (highest dose often 46.1 µM), for the others: at the highest dose activity change, negative = inhibition; O95149+P62826; AID 540253; hit rate 0.071% among 340,000; Biochemical FRET Rango-importin beta, RanGTP-induced dissociation; active means falling FRET ratio curve, often poorly fitted, with flat reads before Ran was added; inconclusive means other falling curves, or compound fluorescence or quenching; inactive means flat or rising ratio curve;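 also: potency is read from the fitted curve at half-maximal effect; % of control where 0% means no effect; nearly all actives have a fitted effect of over 45% in size; -100% = wells without RanGTP and RCC1; the record marks most hits as doubtful in a second field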
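Quantitative HTS using a FRET biosensor: 0.1 uM Rango, 0.25 uM importin beta, 0.6 uM Ran, 2 mM GTP, 0.2 uM RCC1 final, PBS with DTT, Tween-20 and BSA. Post-read taken 45 min after Ran addition.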
miR-21 reporter – miR-21 reporter, rising signal; AID 2288; Potency, µM (series often up to 38.3 µM), for the others: top-dose reporter change, positive = more light; 340,000 tested, under 10 active; HeLa miR-21 FLuc reporter, luciferase, 48 h; active = well fitted rising curve with a large enough effect; inconclusive = small, poorly fitted or top-dose-only effect; inactive = no such curve, though single readings can be large or run the other way;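 also: % of control where 0% means no effect; miR-21 action dims this reporter so a rising signal means less miR-21 action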
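Using DMEM plus 10% FBS, HeLa miR-21-FLuc cells are incubated with test compounds (final up to about 40uM) for 48 hours; firefly luciferase signal is then imaged following reagent-mediated lysis.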
Rango-impB inh – inhibitors of Rango-importin beta complex formation; Q14974; Rango CFP/YFP FRET sensor + importin beta, 45 min; Potency, µM (top dose mostly 92.2 µM), for the others: at the top dose inhibition of complex formation; hit rate 0.031% among 340,000; AID 540263; active = rising FRET ratio curve, often small or poorly fitted; inconclusive = mostly compound fluorescence or quenching in the first reads; inactive = flat curves in all reads;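 also: potency is read from the fitted curve at half-maximal effect; 0% = DMSO wells and 100% = buffer wells lacking importin beta; nearly all actives have a fitted effect of over 15% in size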
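FRET biosensor (snurportin 1 IBB flanked by EYFP and cerulean), 50 nM, with compound 5 min, then 0.125 microM importin beta in PBS, 1 mM DTT, 0.02% Tween-20, 0.1% BSA. CFP/YFP ratio read after 45 min at room temperature; pre-read flags interference.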
GLA inh pH 4.5 – inhibitors of human alpha-galactosidase A at pH 4.5; purified enzyme, 4-MU-alpha-Gal fluorescence, pH 4.5; activity change, negative = inhibition, % at 105 µM; 230,000 tested, under 10 active; AID 1467; inconclusive = small, poorly fitted or top-dose-only inhibition, or a rising curve; inactive = flat fitted curve, though single readings scatter; no compound was filed as active;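 also: 0% = full activity with enzyme and -100% = basal without enzyme; dose as in the result columns while the protocol names 77 µM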
Target sequence (P06280 whole entry, looked up): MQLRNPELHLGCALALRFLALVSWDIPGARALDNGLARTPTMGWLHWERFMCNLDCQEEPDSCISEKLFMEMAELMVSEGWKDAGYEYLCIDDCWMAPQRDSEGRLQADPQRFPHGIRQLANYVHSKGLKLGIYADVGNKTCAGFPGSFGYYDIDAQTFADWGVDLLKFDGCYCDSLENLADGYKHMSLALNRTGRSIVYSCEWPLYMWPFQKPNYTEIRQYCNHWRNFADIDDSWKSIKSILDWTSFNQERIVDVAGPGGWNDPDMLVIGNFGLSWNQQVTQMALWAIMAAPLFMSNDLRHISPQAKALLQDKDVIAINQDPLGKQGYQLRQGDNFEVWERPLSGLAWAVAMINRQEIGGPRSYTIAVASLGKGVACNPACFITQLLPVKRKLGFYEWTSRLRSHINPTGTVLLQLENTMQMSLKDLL
Starred values were filed as active, the others as inactive; ? = inconclusive; . = not tested or not shown. Not all compounds are listed, so the mix of outcomes need not match the whole.

Rango release inh	miR-21 reporter	Rango-impB inh	GLA inh pH 4.5	Molecule
3%	.	-1.3%	.	CCCCCn1c(=O)[nH]c2cc(C(=O)NCCN3CCOCC3)ccc2c1=O
9%	.	-0.8%	.	O=C(NCCCN1CCOCC1)c1c(-c2ccccc2)sc2ccccc12
4%	-7%	2.4%	-2	COc1ccc(NS(=O)(=O)c2cc(NC(=O)/C=C/c3cc(OC)c(OC)c(OC)c3)ccc2N2CCCCC2)cc1
19%	-1%	0.1%	.	CC1CCCCC1NC(=O)CSc1nnc(-c2ccncc2)n1CCCN(C)C (centres undefined)
2%	1%	0.5%	1	COc1cccc(NC(=O)N2CCC(C(N)=O)(N3CCCCC3)CC2)c1
6%	-38%	5.4%	3	COc1ccccc1NC(=O)c1cc2ccccc2o/c1=N\O
6%	-11%	4.6%	0	CC(=O)c1ccc(N2CCN(C(=O)c3ccc(NC(=O)C4CCCO4)cc3)CC2)cc1 (centres undefined)
-12%	-5%	3.5%	.	CCc1nn(CC(=O)NCCCN2CCOCC2)c(=O)c2cc3sccc3n12
8%	-7%	-2.7%	0	NS(=O)(=O)c1ccc(Cl)cc1[N+](=O)[O-]
-5%	5%	-2.3%	.	Cc1ccc(OCCNC(=O)Cc2ccc(S(=O)(=O)N3CCOCC3)s2)cc1
2%	0%	-3.5%	6	CCc1ccc(NC(=O)CCCN2C(=S)NC(C)(C)CC2C)cc1 (centres undefined)
-12%	6%	0.3%	.	CSc1ccccc1NC(=O)CSc1nnc(Cc2ccccc2)o1
-19%	-32%	2.4%	-4	NC(=O)C1=C[C@H](c2ccccc2)C[C@H](OCc2ccc(CO)cc2)O1
14%	-11%	-0.8%	-3	O=S(=O)(c1ccccc1)c1nc(-c2ccccc2Cl)oc1NCCN1CCOCC1
0%	-18%	-0.4%	3	Cc1nc2cc(NC(=O)Nc3nccs3)ccc2n1C
-9%	.	1.1%	.	C=C[C@]1(C)C=C2CC[C@H]3[C@@](C)(CCC[C@@]3(C)C(=O)O)[C@@H]2CC1
-2%	-6%	0.2%	.	CC1CC(C)CN(C(=O)Cn2nnc(-c3ccccc3)n2)C1 (centres undefined)
-2%	12%	5.9%	.	Cc1ccc(C)c(NC(=O)Cn2cc(C(=O)C3CC3)c3ccccc32)c1
14%	-3%	-0.3%	1	Cc1ccccc1NCC(=O)N/N=C\c1ccc2c(c1)OCO2
-3%	5%	-4.2%	.	Cc1ccc(C(=O)NNC(=O)C2CCN(c3ncccn3)CC2)cc1
-8%	2%	-1.7%	1	Cc1ccc(-n2nnnc2SCC(=O)Nc2ncc(Cc3ccccc3Cl)s2)cc1
-6%	.	-0.1%	.	CC(C)NC(=O)N(C)C[C@@H]1Oc2c(NS(=O)(=O)c3ccccc3)cccc2C(=O)N([C@@H](C)CO)C[C@@H]1C
12%	.	-0.6%	.	CCCCn1c(N)c(N(CCOC)C(=O)CCNC(=O)NC23CC4CC(CC(C4)C2)C3)c(=O)[nH]c1=O
-6%	-62%	0.2%	3	Brc1ccccc1/C=N/Nc1ccc2ccccc2n1
-10%	-3%	2.5%	-8	Cc1nn(-c2ccccc2)c(Cl)c1C(=O)Nc1nnc(C2CCCC2)s1
7%	-8%	0.9%	1	CC(C)(C)NC(=O)COC(=O)c1ccccc1Oc1ccccc1
4%	-7%	2.8%	3	COc1ccc(NS(=O)(=O)c2ccc(N3CCOCC3)c(NC(=O)c3ccc(F)cc3)c2)cc1
24%	29%	-0.6%	-1	COCc1c(C(=O)OCC(=O)c2c(N)n(CC(C)C)c(=O)n(C)c2=O)oc2ccccc12
-11%	.	-2.9%	.	CC[C@]12c3[nH]c4ccccc4c3CCN1C(=O)C(CC(=O)NCc1cccc(C(F)(F)F)c1)C[C@@H]2C(=O)N1CCN(C(=O)C2CC2)CC1 (some centres undefined)
14%	8%	-7.3%	-9	COc1cccc(C(=O)N/N=C/c2ccc(Oc3ccc([N+](=O)[O-])cn3)c(OC)c2)c1
6%	0%	0.1%	13	Cc1cccc(/C=N/NC(=O)c2cc(-c3cccnc3)nc3c2c(C)nn3-c2ccccc2)c1
-3%	1%	?	-4	CCOC(=O)c1c(N)sc(N)c1C(=O)OCC
15%	-1%	-0.3%	.	CC(C)(C)NC(=O)CN(C(=O)CCC(=O)Nc1nccs1)c1ccc(F)c(Cl)c1
5%	-7%	5.3%	.	CCCCC(=O)Nc1ccc2c(c1)nc(CCN1CCN(c3ccccn3)CC1)n2C
5%	-1%	-0.1%	-1	O=C1CC2C(=O)NCCN2C(=NC(=O)c2ccc(Cl)cc2)N1 (centres undefined)
14%	2%	4.2%	.	C[C@@]12C(=O)N(Cc3ccccc3)CC(=O)N1[C@H](/C=C/c1ccccc1)[C@@H]1C(=O)N(c3ccccc3)C(=O)[C@@H]12

Compound profiles, as listed above. Order of values: Rango release inh, miR-21 reporter, Rango-impB inh, GLA inh pH 4.5
Results for COc1ccc(NS(=O)(=O)c2ccc(N3CCOCC3)c(NC(=O)c3ccc(F)cc3)c2)cc1 → 4%, -7%, 2.8%, 3
Results for CC(C)(C)NC(=O)CN(C(=O)CCC(=O)Nc1nccs1)c1ccc(F)c(Cl)c1 → 15%, -1%, -0.3%, .
Results for O=C1CC2C(=O)NCCN2C(=NC(=O)c2ccc(Cl)cc2)N1 (centres undefined) → 5%, -1%, -0.1%, -1
Results for CCCCC(=O)Nc1ccc2c(c1)nc(CCN1CCN(c3ccccn3)CC1)n2C → 5%, -7%, 5.3%, .
Results for CC(C)(C)NC(=O)COC(=O)c1ccccc1Oc1ccccc1 → 7%, -8%, 0.9%, 1

Continued:
Rango release inh	miR-21 reporter	Rango-impB inh	GLA inh pH 4.5	Molecule
13%	-16%	-1.9%	1	COc1ccc2cc(CCNC(=O)C3CCCC3)c(=O)[nH]c2c1
4%	.	3.6%	6	CN(C)CC/C=C1\c2ccccc2CSc2ccccc21
?	-4%	?	0	CCOC(=O)c1c(/N=C/C2=C(O)CC(C)(C)CC2=O)sc(C)c1C
-4%	?	1.7%	6	Oc1c(Cl)cc(Cl)c(Cl)c1Cc1c(O)c(Cl)cc(Cl)c1Cl
-9%	-5%	0.6%	4	CN(C)c1ccc(NC(=O)CSc2nc3c(c(=O)[nH]2)CCCC3)cc1
23%	.	1.5%	.	O=C(CSc1ncnc2sccc12)Nc1ccc(S(=O)(=O)N2CCOCC2)cc1
?	1%	0.8%	.	O=C(NN1CCOCC1)c1ccc(Cl)c([N+](=O)[O-])c1
1%	-5%	-4.5%	4	O=C(CCSCc1cccc(Cl)c1)NCCC1=CCCCC1
-15%	1%	-4.0%	4	COc1ccc(S(=O)(=O)N(C)c2ccc(C(=O)N3CCCCC3)cc2)cc1OC
-3%	-33%	-0.8%	-7	Cc1cc(NC(=O)c2noc3c2CCCC3)no1
8%	-4%	3.9%	-7	C#CCOCCOCCOCCNc1nc(N2CCN(C(=O)Cn3cc(CCCCN)nn3)CC2)nc(N2CCN(C(=O)Cn3cc(CCCCN)nn3)CC2)n1
-14%	0%	-2.0%	0	COc1ccc(S(=O)(=O)N2CCN(C(=O)c3c(-c4ccccc4)noc3C)CC2)cc1
23%	.	0.7%	.	Cc1cc(C)c(C(=O)COC(=O)c2c(C)noc2C)cc1C
-7%	-5%	?	0	COc1ccc(CNC(=O)CS(=O)Cc2nc(-c3ccccc3C)oc2C)cc1 (centres undefined)
-13%	1%	0.3%	3	CCOC(=O)C1=C(O)/C(=C/c2cc(OC)c(OC)c(OC)c2)N=C1C
7%	7%	0.0%	-6	COc1ccc(NC(=O)c2ccc(S(=O)(=O)N3CCCCCC3)cc2)c(OC)c1
-12%	.	0.3%	.	Nc1cc(=O)[nH]c(SCC(=O)Nc2ccc(N3CCOCC3)cc2)n1
11%	-11%	-2.3%	-6	O=C(Nc1cccc2ccccc12)c1cc2c(cc1Br)OCO2
-7%	-4%	0.0%	2	COC(=O)c1ccc(C2c3c(oc4ccc(Cl)cc4c3=O)C(=O)N2CCN2CCOCC2)cc1 (centres undefined)
11%	9%	-4.1%	-9	CCS(=O)(=O)C(=C(Nc1ccc(OC)cc1)Nc1ccc(OC)cc1)S(=O)(=O)CC
5%	-1%	0.3%	.	Cn1c(=O)n(C)c2cc(NC(=O)CSc3ccccc3)ccc21
7%	5%	?	.	CC(=O)N1CCc2c(sc(NC(=O)Cc3ccc(F)cc3)c2C(N)=O)C1
7%	0%	-2.8%	7	Cc1ccc(CNC(=O)C2CC(c3cccc([N+](=O)[O-])c3)=NO2)cc1 (centres undefined)
6%	-1%	-5.6%	-5	COc1ccccc1C(=O)n1nc(-c2ccco2)nc1SC
-18%	-17%	?	-1	COc1ccc(/C=N/NC(=O)OC(C)(C)C)cc1OC
15%	-7%	4.5%	.	CCCCOc1ccc(C2(C)NC(=O)NC2=O)cc1 (centres undefined)
-9%	-1%	-0.1%	.	CCOc1ccc(CCNC(=O)c2sc3nc4n(c(=O)c3c2C)CCC4)cc1OCC
22%	-2%	-0.1%	0	Cc1ccc(NC2=NCCCCC2)cc1
9%	1%	?	2	CC1(C)CC(=O)C2=C(C1)N(Cc1ccco1)C(=O)C2(NC(=O)c1ccc(Cl)cc1Cl)C(F)(F)F (centres undefined)
?	-34%	?	-8	Cc1cc(/C=C(\C#N)c2nc3ccccc3[nH]2)c(C)n1C
16%	4%	-1.5%	.	COc1ccc(OC)c(NC(=O)c2cc(S(=O)(=O)N3CCCCC3)c[nH]2)c1
2%	-1%	2.0%	-3	CCOC(=O)CCNc1n[nH]c(=O)[nH]c1=O
-11%	-3%	-2.0%	9	Cc1cc(C)nc(/N=c2/ssnc2Cl)c1
-13%	.	-0.5%	.	O=C(OCC(=O)N1CCOCC1)c1ccc2ccccc2c1O
-19%	4%	-4.4%	.	O=C(NCc1ccccc1)c1c[nH]c2ccc(F)cc2c1=O
.	-7%	.	1	CN(C)CCNC(=O)c1cc(Sc2ccc(F)cc2)nc2ccccc12
3%	-27%	1.9%	-5	C=CCSc1nnc(NC(=O)c2ccc(Cl)nc2)s1
-3%	-7%	-1.1%	.	CCc1cc(C(=O)OCC(=O)N2CCC(c3ccccc3)=N2)sc1C
-6%	-2%	1.4%	2	O=c1c(Cl)c(N/N=C/c2ccc(Br)cc2)cnn1-c1ccccc1
-11%	-3%	-1.3%	-8	Cn1c(=O)n(C)c2cc(/C=C3/SC(=O)N(CC(=O)N4CCOCC4)C3=O)ccc21
-2%	17%	1.5%	7	CCc1n[n+](CC(=O)c2ccccc2)c(N)s1
2%	0%	0.5%	8	CC(C)Cc1nc2sc3c(=O)[nH]cnc3c2c2c1CCCC2
-4%	-10%	-2.4%	.	CCOC(=O)c1ccc(NC(=O)Nn2cnnc2)cc1
-12%	-1%	3.3%	9	CC(=O)NC1(C(F)(F)F)C(=O)N(Cc2ccccc2)C2=C1C(=O)CC(C)(C)C2 (centres undefined)
5%	2%	0.0%	7	O=C(c1cc(=O)c2ccccc2o1)N1CCN(c2cccc(Cl)c2)CC1
11%	1%	-0.1%	7	CCCCCN1C(=O)Cn2c(nc3ccccc3c2=O)C1C (centres undefined)
-8%	-9%	-0.3%	0	COc1cc(C2C(C#N)=C(N)Oc3cc(C)n(CCc4ccccc4)c(=O)c32)cc2c1OCO2 (centres undefined)
26%	-2%	-0.4%	-4	CCCCSc1nnc(-c2ccc(NC(=O)CCc3ccccc3)cc2)n1C
-21%	-9%	2.1%	-9	CNC(=S)N1N=C(c2ccccc2)CC1c1ccc(OC)c(OC)c1 (centres undefined)
16%	-25%	0.4%	.	CCOc1ccc(NC(=O)c2cccc3c2C(=O)N(CC2CCCO2)C3)cc1 (centres undefined)
-5%	.	-3.4%	.	NC(=O)Nc1ccc(C(=O)OCC(=O)NCc2ccc3c(c2)OCO3)cc1
